A1 apoptosis 2 – A1 inhibition read as caspase activation. caspase activation, % (test concentration not listed). MEF A1-2A-BIM cells, caspase-Glo luminescence, 3 h; percent of clofoctol response, DMSO zero. AID 2465. 24,000 tested, under 10 active; in the data active = caspase activation above about 5.9%;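 note: wells of about 30 µL received 50 nL stock; the first replicate is given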
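Test system – A1-2A-BIM-expressing MEF cells · Input – 2500 cells/well · Medium – RPMI-1640 growth medium with 10% FBS · Compound dosing – 50 nL pinned compound · Timing – 3 h compound exposure at 37 °C · Technique – Caspase-Glo luminescence (DEVD substrate) · Evaluation – Caspase-3/7 activity from luminescence increase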
* marks the source's active call; other numbers are inactive results; & = joins results of further samples. These rows are one share of the data; rates above refer to the full screens.

SMILES	A1 apoptosis 2
C[C@@H]1CN([C@@H](C)CO)C(=O)c2cc(NC(=O)CCC(F)(F)F)ccc2O[C@@H](C)CCCCO[C@@H]1CN(C)C(=O)c1ccncc1	-1.3
Cc1c(N2C(=O)CSC2c2ccccc2)c(=O)n(-c2ccccc2)n1C (stereo not drawn)	1.4
C[C@@H]1CN([C@H](C)CO)C(=O)c2cccc(NC(=O)c3nc4ccccc4s3)c2O[C@@H]1CN(C)S(C)(=O)=O	-1.0
C[C@H]1CCCCO[C@@H](CN(C)C(=O)Cc2ccccc2)[C@@H](C)CN([C@@H](C)CO)C(=O)c2cc(NC(=O)Cc3ccccc3)ccc2O1	0.1
CC(C)NC(=O)Nc1ccc2c(c1)C(=O)N([C@H](C)CO)C[C@H](C)[C@@H](CN(C)C(=O)Nc1ccccc1)OCCCC[C@@H](C)O2	-0.7
C=CCN1C(=O)[C@]2(CCS(=O)(=O)c3ccccc3)N=C(c3ccc(OCCCO)cc3)O[C@@H]2c2ccccc21	0.4&-0.7
COc1ccc(CN(C)C[C@H]2Oc3ccc(NC(=O)c4ccncc4)cc3C(=O)N([C@H](C)CO)C[C@@H]2C)cc1	-0.4
C[C@H](CO)N1C[C@H](C)[C@@H](CN(C)Cc2ccccc2)Oc2ccc(NS(=O)(=O)c3ccc(Cl)cc3)cc2CC1=O	-1.0
O=C(O)c1cccc(/C=N/NC(=O)c2ccccc2O)c1	-11.6
CNC[C@H]1Oc2ccc(NC(=O)Nc3ccc(OC)cc3)cc2C(=O)N([C@@H](C)CO)C[C@@H]1C	-1.2
C[C@H]1CN([C@@H](C)CO)C(=O)Cc2cc(N(C)C)ccc2O[C@@H]1CN(C)S(=O)(=O)c1cn(C)cn1	-1.1
Cc1noc(C)c1NC(=O)Nc1ccc2c(c1)C(=O)N([C@@H](C)CO)C[C@H](C)[C@H](CN(C)C(=O)Nc1ccc3c(c1)OCO3)O2	0.3
CC(C)NC(=O)Nc1ccc2c(c1)C(=O)N([C@@H](C)CO)C[C@@H](C)[C@H](CN(C)C(=O)Nc1ccccc1)O2	-0.8
C[C@H](CO)N1C[C@H](C)[C@H](CN(C)Cc2ccccc2)Oc2ccc(NC(=O)CCCN(C)C)cc2C1=O	1.4
CNC[C@@H]1Oc2ccc(NC(=O)CCCN(C)C)cc2C(=O)N([C@@H](C)CO)C[C@H]1C	0.0
COc1ccc(S(=O)(=O)Nc2ccc3c(c2)C(=O)N([C@H](C)CO)C[C@H](C)[C@@H](CN(C)CC2CCCCC2)OCCCC[C@H](C)O3)cc1	0.0
C[C@@H]1CCCCO[C@H](CN(C)S(=O)(=O)c2ccc(F)cc2)[C@H](C)CN([C@H](C)CO)C(=O)c2cc(NC(=O)C3CCCCC3)ccc2O1	-0.6
COc1ccc(S(=O)(=O)Nc2ccc3c(c2)C(=O)N([C@H](C)CO)C[C@H](C)[C@H](CN(C)C(=O)Nc2ccccc2)OCCCC[C@H](C)O3)cc1	0.2
C[C@H]1CN([C@@H](C)CO)C(=O)c2cccc(N(C)C)c2O[C@H]1CN(C)Cc1ccc(C(=O)Nc2ccccc2N)cc1	-0.2
C[C@H](CO)N1C[C@H](C)[C@H](CN(C)S(=O)(=O)c2cccs2)OCCCC[C@H](C)Oc2ccc(NS(C)(=O)=O)cc2C1=O	-0.4
COc1ccc(S(=O)(=O)N(C)C[C@@H]2OCc3cnnn3CCCC(=O)N([C@H](C)CO)C[C@@H]2C)cc1	-0.3
CNC[C@@H]1OCCCC[C@@H](C)Oc2ccc(NS(=O)(=O)c3ccccc3)cc2C(=O)N([C@@H](C)CO)C[C@@H]1C	-0.9
C[C@@H]1CN([C@H](C)CO)C(=O)Cc2cc(NC(=O)Nc3ccccc3)ccc2O[C@H]1CN(C)C	0.2
COc1ccc(NC(=O)Nc2cccc3c2O[C@@H](CN(C)Cc2ccc4c(c2)OCO4)[C@H](C)CN([C@H](C)CO)C3=O)cc1	0.0
C[C@@H]1CCCCO[C@H](CN(C)C(=O)C2CCCCC2)[C@@H](C)CN([C@@H](C)CO)C(=O)c2cc(N(C)C)ccc2O1	0.4

Reprinted from the part before: 7 entries; new compounds follow.
SMILES	A1 apoptosis 2
C[C@H]1CN([C@@H](C)CO)C(=O)c2cccc(N(C)C)c2O[C@H]1CN(C)Cc1ccc(C(=O)Nc2ccccc2N)cc1	-0.2
C[C@H](CO)N1C[C@H](C)[C@H](CN(C)S(=O)(=O)c2cccs2)OCCCC[C@H](C)Oc2ccc(NS(C)(=O)=O)cc2C1=O	-0.4
COc1ccc(S(=O)(=O)N(C)C[C@@H]2OCc3cnnn3CCCC(=O)N([C@H](C)CO)C[C@@H]2C)cc1	-0.3
CNC[C@@H]1OCCCC[C@@H](C)Oc2ccc(NS(=O)(=O)c3ccccc3)cc2C(=O)N([C@@H](C)CO)C[C@@H]1C	-0.9
C[C@@H]1CN([C@H](C)CO)C(=O)Cc2cc(NC(=O)Nc3ccccc3)ccc2O[C@H]1CN(C)C	0.2
COc1ccc(NC(=O)Nc2cccc3c2O[C@@H](CN(C)Cc2ccc4c(c2)OCO4)[C@H](C)CN([C@H](C)CO)C3=O)cc1	0.0
C[C@@H]1CCCCO[C@H](CN(C)C(=O)C2CCCCC2)[C@@H](C)CN([C@@H](C)CO)C(=O)c2cc(N(C)C)ccc2O1	0.4
Cc1ccc(S(=O)(=O)Nc2ccc3c(c2)C(=O)N([C@H](C)CO)C[C@H](C)[C@H](CN(C)Cc2ccncc2)O3)cc1	0.2
C[C@H](CO)N1C[C@H](C)[C@@H](CN(C)Cc2ccccc2)Oc2ccc(NC(=O)Nc3ccccc3)cc2CC1=O	-0.5
C[C@@H]1CCCCO[C@@H](CN(C)C(=O)NC2CCCCC2)[C@@H](C)CN([C@H](C)CO)C(=O)c2cc(NC(=O)c3ccncc3)ccc2O1	0.8
COC(=O)CCCCCCC(=O)N/N=C/CC1=C(C)CCCC1(C)C	-1.0
C[C@H](CO)N1C[C@H](C)[C@@H](CN(C)S(=O)(=O)c2ccc(F)cc2)Oc2ccc(NC(=O)Nc3ccc(F)cc3)cc2CC1=O	1.1
Cc1noc(C)c1S(=O)(=O)Nc1ccc2c(c1)C(=O)N([C@H](C)CO)C[C@@H](C)[C@H](CN(C)C(=O)Nc1ccccc1)OCCCC[C@@H](C)O2	-0.7
C[C@@H]1CCCCO[C@H](CN(C)Cc2ccccc2)[C@@H](C)CN([C@@H](C)CO)C(=O)c2cc(NC(=O)c3ccccc3)ccc2O1	-0.6
C[C@H]1CN([C@@H](C)CO)C(=O)CCCn2nncc2CO[C@@H]1CN(C)Cc1ccc(C(F)(F)F)cc1	-0.2
C[C@H]1CN([C@@H](C)CO)C(=O)Cc2cc(NC(=O)CCCCCC(=O)Nc3ccccc3N)ccc2O[C@H]1CN(C)CC1CC1	0.9
C[C@@H]1CCCCO[C@H](CN(C)S(=O)(=O)c2ccccc2)[C@H](C)CN([C@@H](C)CO)C(=O)c2cc(NC(=O)CCC(F)(F)F)ccc2O1	1.8
C[C@H]1CN([C@@H](C)CO)C(=O)Cc2cc(NC(=O)Cc3cn(C)c4ccccc34)ccc2O[C@@H]1CN(C)Cc1ccc(C(F)(F)F)cc1	-0.6
COc1ccc(S(=O)(=O)Nc2ccc3c(c2)C(=O)N([C@@H](C)CO)C[C@H](C)[C@H](CN(C)C(=O)c2ccccc2)OCCCC[C@H](C)O3)cc1	0.9
C[C@@H]1CN([C@@H](C)CO)C(=O)CCCn2cc(nn2)CO[C@@H]1CN(C)C(=O)Cc1ccccc1	0.4
COc1ccc(CN(C)C[C@@H]2Oc3c(NC(=O)c4ccc(-c5nccs5)cc4)cccc3C(=O)N([C@H](C)CO)C[C@@H]2C)cc1	0.1
C[C@H](CO)N1C[C@H](C)[C@H](CN(C)C(=O)C2CCCCC2)OCCCC[C@H](C)Oc2ccc(NC(=O)c3ccccc3)cc2C1=O	0.3
O=C(CCCCCCC(=O)Nc1ccccc1O)N/N=C/c1ccc2c(c1)CCO2	-0.5
CNC[C@@H]1Oc2ccc(NS(=O)(=O)c3c(C)noc3C)cc2C(=O)N([C@@H](C)CO)C[C@H]1C	0.1
C[C@@H]1CCCCO[C@H](CN(C)Cc2ccc(Cl)c(Cl)c2)[C@@H](C)CN([C@H](C)CO)C(=O)c2cc(NC(=O)c3ccncc3)ccc2O1	-0.2
C[C@H]1CN([C@@H](C)CO)C(=O)Cc2cc(NC(=O)CCC(F)(F)F)ccc2O[C@@H]1CN(C)S(=O)(=O)c1ccccc1	-1.2
C[C@H](CO)N1C[C@H](C)[C@@H](CN(C)CC2CCCCC2)Oc2ccc(NC(=O)Cc3cn(C)c4ccccc34)cc2C1=O	-1.3
Cc1noc(C)c1NC(=O)Nc1ccc2c(c1)C(=O)N([C@@H](C)CO)C[C@@H](C)[C@@H](CN(C)C(=O)Nc1c(C)noc1C)OCCCC[C@@H](C)O2	-0.1
C[C@H]1CN([C@@H](C)CO)C(=O)c2cc(NC(=O)Cn3cnnn3)ccc2O[C@H]1CN(C)S(=O)(=O)c1cn(C)cn1	-1.0
C[C@H](CO)N1C[C@H](C)[C@@H](CN(C)S(=O)(=O)c2cn(C)cn2)OCCCC[C@H](C)Oc2ccc(NS(=O)(=O)c3cccs3)cc2C1=O	1.2
C[C@@H]1CN([C@@H](C)CO)C(=O)c2cc(NS(=O)(=O)c3ccc(F)cc3)ccc2O[C@@H]1CN(C)Cc1ccc(C(F)(F)F)cc1	-1.5
Cc1noc(C)c1NC(=O)Nc1ccc2c(c1)C(=O)N([C@H](C)CO)C[C@H](C)[C@H](CN(C)C)OCCCC[C@H](C)O2	1.0

Additional results:
SMILES	A1 apoptosis 2
COc1ccc(CN(C)C[C@H]2OCCCC[C@@H](C)Oc3ccc(NS(=O)(=O)c4cccs4)cc3C(=O)N([C@H](C)CO)C[C@H]2C)cc1	-0.1
C[C@@H]1CCCCO[C@H](CN(C)Cc2ccc(C(F)(F)F)cc2)[C@H](C)CN([C@H](C)CO)C(=O)c2cc(NC(=O)Nc3ccc(F)cc3)ccc2O1	-0.4
C[C@H](CO)N1C[C@H](C)[C@H](CN(C)S(=O)(=O)c2ccccc2F)OCc2cn(nn2)CCCC1=O	0.5
C[C@H](CO)N1C[C@H](C)[C@@H](CN(C)S(=O)(=O)c2ccc(Cl)cc2)Oc2c(NC(=O)C3CCCCC3)cccc2C1=O	-0.2
COc1ccc(CN(C)C[C@H]2Oc3ccc(NC(=O)Nc4ccc(OC)cc4)cc3C(=O)N([C@H](C)CO)C[C@H]2C)cc1	1.0
C[C@H]1CCCCO[C@H](CN(C)C(=O)CCC(F)(F)F)[C@@H](C)CN([C@@H](C)CO)C(=O)c2cc(NS(=O)(=O)c3cccs3)ccc2O1	0.8
C[C@@H]1CN([C@H](C)CO)C(=O)c2cc(NS(=O)(=O)c3cccs3)ccc2O[C@@H](C)CCCCO[C@@H]1CN(C)S(=O)(=O)c1cccs1	0.8
C[C@@H]1CCCCO[C@H](CN(C)Cc2ccc(C(=O)O)cc2)[C@H](C)CN([C@@H](C)CO)C(=O)c2cc(NS(=O)(=O)c3cccs3)ccc2O1	2.3
O=C(Nc1ccccc1)C1=C[C@H](c2ccc3c(c2)Cc2ccccc2-3)C[C@H](OCc2ccc(CO)cc2)O1	-1.6
C[C@H]1CN([C@@H](C)CO)C(=O)c2cccc(NC(=O)C3CCCCC3)c2O[C@@H]1CN(C)S(=O)(=O)c1cn(C)cn1	0.2
CC(C)NC(=O)N(C)C[C@H]1OCCCC[C@H](C)Oc2ccc(N(C)C)cc2C(=O)N([C@H](C)CO)C[C@H]1C	-1.5
C[C@H](CO)N1C[C@H](C)[C@H](CN(C)Cc2ccc(C(=O)O)cc2)OCc2cn(nn2)CCCC1=O	0.2
CCCN(C)C[C@@H]1Oc2ncc(-c3ccc(OC)cc3)cc2C(=O)N([C@H](C)CO)C[C@@H]1C	0.1
C[C@H](CO)N1C[C@H](C)[C@H](CN(C)C(=O)C2CCCCC2)OCCCC[C@H](C)Oc2ccc(NC(=O)Cc3ccccc3)cc2C1=O	-1.1
C[C@H](CO)N1C[C@H](C)[C@H](CN(C)C(=O)CCC(F)(F)F)OCc2cn(nn2)CCCC1=O	0.9
C[C@H](CO)N1C[C@H](C)[C@@H](CN(C)C(=O)Nc2ccccc2)Oc2ccc(NC(=O)Cc3cn(C)c4ccccc34)cc2CC1=O	-0.7
COCCOC(=O)N1C(=O)[C@@]2(c3cc(C#CCC(C(=O)OC)C(=O)OC)ccc31)[C@H](c1ccccc1OCCO)N1[C@H](c3ccccc3)[C@H](c3ccccc3)OC(=O)[C@H]1[C@@H]2C(=O)N1CCN(c2ncccn2)CC1	0.6
C[C@H]1CN([C@@H](C)CO)C(=O)Cc2cc(NS(=O)(=O)c3ccccc3)ccc2O[C@@H]1CN(C)C(=O)NC1CCCCC1	-1.0
C[C@H]1CCCCO[C@H](CN(C)S(=O)(=O)c2cn(C)cn2)[C@@H](C)CN([C@@H](C)CO)C(=O)c2cc(NC(=O)Nc3ccc(F)cc3)ccc2O1	-0.2
C[C@H]1CN([C@@H](C)CO)C(=O)c2cc(NC(=O)Nc3ccc(C(F)(F)F)cc3)ccc2O[C@H]1CN(C)C(=O)NC1CCCCC1	-1.8
CC(C)=CCC[C@H](C)C/C=N/NC(=O)CCCCCCC(=O)NO	1.2
C[C@H](CO)N1C[C@H](C)[C@@H](CN(C)Cc2ccc3c(c2)OCO3)Oc2ccc(NS(=O)(=O)c3ccccc3)cc2C1=O	-1.4
C[C@@H]1CN([C@H](C)CO)C(=O)Cc2cc(NC(=O)CCN3CCOCC3)ccc2O[C@H]1CN(C)C	0.5

Assay outcomes (PubChem)
